TRPV1 potentiator – potentiators of human vanilloid receptor 1 (TRPV1); TRPV1-expressing cells, Fluo-8 calcium influx, capsaicin EC20 potentiation; host cell line not named in the record; control for the full effect not named in the record; potentiation, % at 8.33 µM; 320,000 tested, 0.02% active; Q8NER1; AID 540277; active means potentiation above 80%; inconclusive means 30% to 80%; inactive means below 30%; further: 0% is about no effect
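TRPV1-expressing cells were cultured overnight at 35.5C and loaded with Fluo-8 calcium dye for 40 to 90 min at room temperature. After a 10 s baseline, compound was added and calcium influx was read kinetically for 3 min (ex 480/em 520 nm).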
ClpP mod – qHTS Assay for Activators of ClpP; ATP-dependent Clp protease proteolytic subunit (Bacillus subtilis (strain 168)), P80244; purified B. subtilis ClpP, FRET peptide cleavage, 20 min; Potency, µM (series often up to 57.5 µM), for the others: at the top dose activity change, negative = active; 340,000 tested, 1.9% active; AID 651965, 2013; active = well fitted falling curve with a large enough effect; inconclusive = small, poorly fitted or top-dose-only effect; inactive = no such curve, though single readings can be large or run the other way; further: potency means the concentration at half of the fitted maximal effect; the source files actives as falling curves though it sought activators and does not explain the sign; nearly all actives have a fitted effect of over 65% in size; many hits overshoot -100%
Target sequence (P80244 whole entry, looked up): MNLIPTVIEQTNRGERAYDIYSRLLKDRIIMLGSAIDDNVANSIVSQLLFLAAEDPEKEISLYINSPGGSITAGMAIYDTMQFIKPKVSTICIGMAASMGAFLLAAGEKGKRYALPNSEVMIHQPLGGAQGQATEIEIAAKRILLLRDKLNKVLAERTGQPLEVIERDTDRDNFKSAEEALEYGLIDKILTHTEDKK
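Purified B. subtilis ClpP, 10 microg/mL final in Tris/HCl pH8 with KCl, BSA, glycerol and Tween-20, cleaved an Abz/nitrotyrosine-quenched decapeptide. Fluorescence (ex 320, em 430) was read at 0 and 20 min at room temperature. Delta was normalized to 5.8 microM ADEP and DMSO/no-enzyme controls.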
TRPML1 inh – inhibitors of human TRPML1 channel; 390,000 tested, 0.02% active; activity change, negative = inhibition, % (test concentration not listed); TRPML1-inducible cells, Ca2+ dye fluorescence, FDSS; hits give low values; inhibition of EC80 agonist-evoked calcium signal; in the data active means activity change below about -50%; inconclusive means about -30% to -50%; inactive means above about -30%;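 further: stimulus is agonist 54-4 at its EC80 concentration; on the % scale 0 is the no-effect control and ±100 the full control effect; compound concentration not given in the record; the text of the record puts the active cut at -80%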
Target sequence (Q9GZU1 whole entry, looked up): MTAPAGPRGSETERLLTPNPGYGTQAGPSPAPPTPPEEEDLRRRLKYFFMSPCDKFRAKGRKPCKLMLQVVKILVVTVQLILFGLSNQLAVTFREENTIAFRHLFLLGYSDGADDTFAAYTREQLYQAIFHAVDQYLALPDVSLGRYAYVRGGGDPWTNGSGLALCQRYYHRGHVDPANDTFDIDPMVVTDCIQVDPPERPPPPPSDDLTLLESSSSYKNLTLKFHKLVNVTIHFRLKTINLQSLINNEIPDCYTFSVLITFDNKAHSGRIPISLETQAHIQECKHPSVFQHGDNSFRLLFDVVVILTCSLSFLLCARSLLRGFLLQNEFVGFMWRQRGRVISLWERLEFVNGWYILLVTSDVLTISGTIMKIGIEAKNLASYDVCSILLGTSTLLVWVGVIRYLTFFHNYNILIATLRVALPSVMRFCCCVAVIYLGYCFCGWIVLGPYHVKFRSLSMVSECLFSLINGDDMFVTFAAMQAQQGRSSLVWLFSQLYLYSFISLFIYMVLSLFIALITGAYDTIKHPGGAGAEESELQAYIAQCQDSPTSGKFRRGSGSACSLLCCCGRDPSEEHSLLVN
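Tet-induced TRPML1-DL cells loaded with Ca8 no-wash calcium dye were read kinetically on FDSS. Compound addition was followed by EC80 agonist 54-4 (4 uM final); inhibition was read over 110 s.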
PINK1 expr mod – changes PINK1 expression. Potency, µM (top dose mostly 76.6 µM), without a hit: top-dose activation (PINK1 increase), actives largely listed as activators. PINK1 immunofluorescence, high-content cytometry, 24 h. AID 624263. 410,000 tested, 0.2% active; active = well fitted activation curve with a large enough effect; inconclusive = small, poorly fitted or top-dose-only effect; inactive = flat fitted curve, though single readings scatter; cell line not stated here;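 further: potency means the concentration at half of the fitted maximal effect; % of control where 0% means no effect; nearly all actives have a fitted effect of over 65% in size; a mitochondrial uncoupler was the plate control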
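Stable cell line treated 24 h with compounds at 5 concentrations (CCCP controls), then fixed and immunostained for PINK1 plus nuclear and cell stains; PINK1 immunofluorescence quantified by laser-scanning microplate cytometry.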
Menin-MLL FL inh – menin-MLL binding inhibition, fluorescein peptide; AID 1766; FP activity change, % at 61.4 µM; Fluorescence polarization, fluorescein-MLL peptide displacement from menin; 290,000 tested, under 10 active; inconclusive = falling polarisation curve, or a change in total fluorescence; inactive = total fluorescence flat and polarisation flat or rising; no compound was filed as active; the % refers to the polarisation; negative = inhibition;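 further: % of control where 0% means no effect; inhibitors lower the polarisation; unlabelled MLL peptide was the positive control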
Sfp inh – inhibitors of Bacillus subtilis Sfp phosphopantetheinyl transferase | Q9F4F7 | Biochemical Sfp PPTase activity, qHTS | Potency, µM, inactives show max response, negative = inhibition, usual class: inhibitors | 310,000 tested, 3.5% active | AID 1490; active means well fitted inhibition curve with a large enough effect; inconclusive means small, poorly fitted or top-dose-only effect, or another doubt; inactive means no such curve, though single readings can be large or run the other way;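 further: the enzyme is Sfp with the accession as filed and its product quenches rhodamine fluorescence; potency means the concentration at half of the fitted maximal effect; 0% = enzyme reaction without inhibitor and -100% = no enzyme wells; top concentration of the series not given in the record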
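Buffer: 50 mM Hepes-Na pH 7.6, 10 mM MgCl2, 0.01% Nonidet P-40, 0.01% BSA. Enzyme 15 nM, pre-exposed to compound 15 min; substrates then added and fluorescence change tracked over 30 min.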
TRPML1 agonist – human mucolipin-1 channel agonism. Q9GZU1. TRPML1-expressing cells, Ca2+ dye fluorescence, FDSS; host cell line not named in the record; reference of the full effect not given here. activation, % (test concentration not listed). 410,000 tested, 0.12% active. AID 624414; in the data active = activation above about 50%; inconclusive = about 30% to 50%; inactive = below about 30%; further: 0% is about no effect; the text of the record puts the active cut at 80%
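Kinetic FDSS Ca2+ read in Tet-induced TRPML1-DL cells (ABD Ca8 dye plus quencher, 45-90 min RT loading): baseline, then compound, then 110 s agonist window; EC80 agonist 54-4 at 4uM final added afterwards for a 110 s antagonist window.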
An asterisk follows results filed as active; ? = inconclusive; . = no result given; & = joins results of further samples; [ ] = remark or other dose. No enrichment for hits; overall some 4.4% were active at least once.

| Compound | TRPV1 potentiator | ClpP mod | TRPML1 inh | PINK1 expr mod | Menin-MLL FL inh | Sfp inh | TRPML1 agonist |
| --- | --- | --- | --- | --- | --- | --- | --- |
| Cc1ccc(OCC(=O)NCC(=O)OCc2cc(=O)n3nc(C)sc3n2)cc1 | . | -3.5% | -20 | -1.3% | . | . | 0.2 |
| Cc1ccc(NC(=O)C2CCN(S(=O)(=O)c3c(C)noc3/C=C/c3cccs3)CC2)cc1F | . | -12% | 3 | 2.1% | . | . | 0.1 |
| O=C(NCCc1ccccc1)c1cnc2sc(N3CCCCC3)nn2c1=O | . | 4.2% | 8 | 0.2% | . | . | 0.4 |
| O=[N+]([O-])c1cccc(-c2c[n+]3c(n2-c2ccccc2)SCC3)c1 | 7 | . | -8 | 0.5% | -2.2 | 5% | 0.4 |
| CC(C)Oc1cccc(C(=O)Nc2ccc(-c3nc4cc(Cl)cc(Cl)c4o3)cc2)c1 | . | ? | 10 | 1.6% | . | . | -0.8 |
| Cc1nc2ccccc2n2c(-c3ccccc3)c3c(=O)n(C)c(=O)n(C)c3c12 | -1 | -11%&-1.2% | -14&6 | -1.1%&1.4% | 1.0 | 10% | -0.4&0.6 |
| C/C(=N\NC(=O)c1cccc(F)c1)c1ccc(NC(=O)Cc2ccccc2)cc1 | 0 | -1.7% | 15 | 5.1% | . | 6% | -0.4 |
| Cc1cccc(NC(=O)CSc2nnc(C)c(=O)[nH]2)c1 | . | -0.2% | 23 | 2.3% | . | . | -0.4 |
| COc1cc([C@@H]2c3cc4c(cc3[C@@H](NC3CCN(Cc5ccccc5)CC3)[C@H]3COC(=O)[C@H]23)OCO4)cc(OC)c1O | 18 | . | . | . | 4.5 | -2% | . |
| COc1ccc(C(=O)Nc2nc(-c3ccc(Br)cc3)ns2)cc1 | . | 2.5% | 52 | 1.4% | . | . | 1.8 |
| CCC(C)n1[nH]c(=O)cc1N (configuration not stated) | -3 | 0.6% | 2 | . | -0.6 | 17% | -0.3 |
| O=P(Cc1cccc[n+]1[O-])(c1ccccc1)c1ccccc1 | 2 | 0.2% | 5 | 2.1% | -0.8 | 3% | -0.6 |
| C[C@H](NC(=O)c1nc[nH]c1C(=O)NCCCCCNC(=O)OC(C)(C)C)C(=O)OC(C)(C)C | 19 | 2.3% | -5 | 2.7% | 2.3 | -2% | 1.6 |
| COC(=O)c1cc(S(=O)(=O)Nc2cccc(-c3ccno3)c2)c[nH]1 | . | -1.2% | 24 | -0.4% | . | . | -0.6 |
| C/C(O)=c1/cnc2nc3ccccc3n2c1=O | -7 | . | 33 | -0.1% | -0.3 | 13% | 1.0 |
| Cc1cccc(N2CCN(S(=O)(=O)c3ccc4[nH]c5c(c4c3)CCCCC5)CC2)c1C | . | -13% | -10 | 3.9% | . | . | -0.6 |
| Cc1ccc(CCNC(=O)Cn2nc(-c3ccc(C)cc3)ccc2=O)cc1 | . | -25% | 18 | 0.5% | . | . | 1.4 |
| c1cnc(N2CCN(c3ncc4c(n3)CCNC4)CC2)nc1 | . | -0.9% | 22 | 2.7% | . | . | 4.0 |
| COCC(C)n1c(SCC(=O)Nc2nccs2)nc2ccccc2c1=O (configuration not stated) | -11 | -0.5% | 4 | 3.0% | . | . | 0.7 |
| C=CCNC(=O)/C(C#N)=C/c1ccc(C)o1 | 1 | -2.0% | -21 | -0.6% | -1.6 | 3% | 1.1 |
| CCCCNC(=O)CC1SC(=NCC)N(CC)C1=O (configuration not stated) | 8 | 4.0% | -2 | -0.9% | 3.4 | 18% | -0.7 |
| Cc1ccc(NC(=O)CSc2nnc(C3CC3)n2N)cc1S(=O)(=O)N1CCOCC1 | -2 | . | 2 | 0.2% | -1.3 | ? | 0.2 |
| Nc1nnn(CC(=O)N/N=C/c2ccncc2)n1 | 28 | 0.2% | -16 | -0.1% | 0.9 | 15% | 1.6 |
| COc1ccccc1NS(=O)(=O)c1ccc(C)c(NS(=O)(=O)c2cc(C(=O)O)cc(C)c2C)c1 | 0 | 0.7% | 31 | 2.2% | . | 7% | -0.3 |
| CN(C)S(=O)(=O)c1cc(C(=O)NCCCn2ccc3ccccc32)ccc1Cl | -6 | -1.1% | 30 | -3.8% | 0.6 | -16% | 4.2 |
| COc1cc(C2C(C#N)=C(N)Oc3c2ccc2ccccc32)ccc1OCC(=O)Nc1cccc(C)c1 (configuration not stated) | 4 | ? | 15 | 0.7% | 12 | ? | 1.4 |
| N#CCSc1nc2sc3c(c2c(=O)n1C1CCCCC1)CCCC3 | -12 | -3.5% | -7 | 9.2% | 4.5 | 6% | -1.0 |
| O=S(=O)(c1ccccc1)N(CC(O)Cn1c2ccccc2c2ccccc21)c1ccccc1 (configuration not stated) | 6 | ? | 31 | ? | 1.7 | 27% | 1.5 |
| CCOC(=O)C1CN(S(=O)(=O)c2ccc(OC)cc2)c2cc(Cl)ccc2O1 (configuration not stated) | -3 | . | 11 | 11% | -0.1 | 3% | 4.7 |
| COc1ccc(C2NC(c3ccc(OC)cc3)C([N+](=O)[O-])C(C)(C)C2[N+](=O)[O-])cc1 (configuration not stated) | 13 | -1.3% | 6 | 1.0% | -0.7 | -1% | 1.6 |
| CCOC(=O)C(=O)Nc1ccccc1C(=O)Nc1ccc(OC)cc1 | -7 | ? | -7 | 0.0%[38.3 µM] | 0.2 | 12% | 0.8 |
| O=C(Nc1ccc(N2CCOCC2)cc1)c1cccc2c(-c3ccc(F)c(F)c3)coc12 | . | 24% | -28 | 8.5% | . | . | 0.2 |
| CCc1ccc(OCCSc2nc3ccccc3n2CC(=O)O)cc1 | 1 | 2.0% | 13 | 1.0% | -0.2 | -9% | 0.6 |
| COC(=O)c1cn(Cc2cccc(C)c2)nn1 | -1 | -2.4% | 15 | -1.5% | -1.3 | -2% | -0.3 |
| O=C(CSc1nnc2c(n1)[nH]c1ccccc12)N1CCCCC1 | 6 | . | 15 | 1.6% | . | 5% | -0.1 |
| O=C(Nc1ccc(OCC(=O)N2CCOCC2)cc1)c1cncc(Br)c1 | 7 | 1.3% | -6 | -2.8% | 1.2 | 16% | -0.1 |
| CN(C)c1ccc(C2=Cc3ccccc3C2)cc1 | . | -1.2% | . | 1.2% | . | . | 0.1 |
| CSc1nc2n(n1)C(C)C1=C(CCCC1=O)N2 (configuration not stated) | 4 | . | -13 | 1.4% | 0.0 | 6% | 0.6 |
| Cc1cccc(-n2c(C)nc3sccc3c2=O)c1 | -5 | 0.9% | -12 | -1.0% | 2.3 | 5% | -0.8 |
| O=C(NCCc1ccccc1)c1cccc([N+](=O)[O-])c1 | -1 | -1.0% | -3 | 5.1% | 0.6 | 12% | -0.8 |
| CC(=O)c1ccc(NC(=O)CCc2c(C)nc3cc(-c4ccc(Cl)cc4)nn3c2C)cc1 | . | ? | 11 | 0.8% | . | . | -0.1 |
| Cc1ccc(S(=O)(=O)N2C[C@@]3(O)Cn4c(=O)ccc(=O)n4C[C@@]3(OC(=O)NCC3CCCCC3)C2)cc1 | . | 0.7% | . | 1.3% | . | . | -0.2 |
| O=C(c1ccco1)N1CCN(S(=O)(=O)c2cccc(C(F)(F)F)c2)CC1 | . | -3.2% | -2 | 2.5% | -0.2 | 3% | 0.1 |
| CCN(CC)CCCNC(=O)CN1C(=O)COc2ccc(S(=O)(=O)N3CCC(C)CC3)cc21 | . | 0.8% | 0 | -1.5% | . | . | 2.1 |
| COc1cc2nc(N3CCCN(C)CC3)nc(NC3CCOCC3)c2cc1OC | . | 4.0% | . | -0.3% | . | . | 0.6 |
| O=C(O)c1cccc(NC(=O)C2C3C=CC(C3)C2C(=O)OCC(F)(F)C(F)F)c1 (configuration not stated) | 15 | -0.9% | 16 | -1.1% | -0.5 | 11% | -0.4 |
| Cc1nnc(N2CCc3ccccc3C2)[nH]c1=O | -5 | 0.5% | 10 | -0.7% | 2.5 | 14% | -0.5 |
| Cc1cc(C)c2cc(C#N)c(N3CCCN(C(=O)c4cnccn4)CC3)nc2c1 | -4 | . | -9 | 2.9% | . | -1% | 2.5 |
| O=C(Nc1cccc(S(=O)(=O)N2CCCC2)c1)c1cc(S(=O)(=O)N2CCOCC2)ccc1F | -2 | 2.0% | 6 | 2.1% | . | . | 0.4 |
| Cc1cc(C(=O)N2CCCC(C(=O)c3ccc4ccccc4c3)C2)n(C)n1 (configuration not stated) | -2 | . | -5 | 1.6% | 1.7 | 7% | 0.3 |
| COc1ccc(-c2noc(CSc3nnc(-c4ccncc4)n3-c3cccc(C)c3)n2)cc1OC | . | 1.1% | 3 | 1.9% | . | . | -0.7 |
| O=C(NCc1ccccc1)C1(c2cccc(F)c2)CCCC1 | -7 | 1.3% | -11 | 1.9% | -7.2 | 19% | 1.4 |
| COc1ccc(C(=O)c2ccc(Cl)cc2)c(OC)c1OC | . | 0.1% | 13 | 1.8% | . | . | 0.9 |
| CCOC(=O)c1cc(-c2ccccc2)sc1NC(=O)C(C)Sc1nnnn1C (configuration not stated) | -8 | -3.0% | 2 | 0.0% | -0.4 | 2% | 1.1 |
| O=C(CN1C2CCCC1CC(NC(=O)c1ccco1)C2)Nc1ccccc1 (configuration not stated) | -2 | 0.8% | -4 | 0.1% | 4.4 | 4% | -0.3 |
| c1ccc2oc(-c3[nH]ncc3CN3CCSCC3)cc2c1 | 0 | -4.9% | 5 | -0.1% | 1.8 | 13% | -0.4 |
| C[C@@H]1CCC[C@]2(O[C@@H](CCO)C[C@H](O)[C@H]2O)O1 | . | -2.7% | 4 | -0.4% | . | . | -0.3 |
| CN(C)c1ccc(CNC(=O)CCCN2C(=O)CCn3nc(-c4cccn4C)cc32)cc1 | . | -2.2% | -3 | 0.3% | . | . | 0.5 |
| COCCNC(=O)C1CCN(S(=O)(=O)c2ccccc2)CC1 | -7 | 0.5% | -20 | . | -8.2 | 21% | -0.3 |
| CCC1CCCCN1C(=O)c1ccc2c(c1)N(Cc1cccc(Cl)c1)C(=O)c1ccccc1S2(=O)=O (configuration not stated) | . | 1.3% | -6 | 2.7% | . | . | 0.0 |
| O=C(CC[C@H]1O[C@@H](n2cnc3c(NC(=O)c4ccccc4)ncnc32)[C@H](O)[C@@H]1O)NCc1cccs1 | . | -0.4% | . | -0.1% | . | . | -0.3 |

Screening results as filed in PubChem.
